GIV-Gai inh: blocks GIV peptide binding to rat Galpha-i3. 210,000 compounds, 0.42% hits. percent of control (FP), % (concentration not given with the values). Galpha-i3/FITC-GIV peptide fluorescence polarization, 90 min; hits give low values; scaled: aluminum fluoride 0%, vehicle 100%;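 active means replicate mean at 85% of control or lower, very high polarization wells dropped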;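 further: wells of about 15 µL received 100 nL stock; the first replicate is given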
Target sequence (P08753 whole entry, looked up): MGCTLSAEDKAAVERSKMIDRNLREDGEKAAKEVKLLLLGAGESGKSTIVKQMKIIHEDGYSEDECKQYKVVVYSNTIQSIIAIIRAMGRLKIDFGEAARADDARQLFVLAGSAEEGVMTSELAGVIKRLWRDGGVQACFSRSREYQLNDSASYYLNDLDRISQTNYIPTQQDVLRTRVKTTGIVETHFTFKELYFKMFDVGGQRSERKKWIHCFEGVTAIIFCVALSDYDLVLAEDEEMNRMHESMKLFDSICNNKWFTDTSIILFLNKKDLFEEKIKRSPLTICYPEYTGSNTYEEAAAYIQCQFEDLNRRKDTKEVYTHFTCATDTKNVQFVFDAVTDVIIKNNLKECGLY
Sa growth 42C: inhibitors of Staphylococcus aureus growth at 42 °C. S. aureus RN4220 growth, OD600, 20 h; hits give low values. relative growth, % (concentration not given with the values). 170,000 compounds, 0.53% hits. AID 720641;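 active means growth at 42 °C up to 50% and 20 or more points under that at 30 °C, or under 10% at both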;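 further: 300 nL library stock went into each well; scaled to the means of positive and negative controls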
HCMV UL50-53 inh: cytomegalovirus nuclear egress complex inhibition; 190,000 compounds, 0.15% hits; inhibition, % (test concentration not listed); HTRF UL50-UL53 interaction, normalized percent inhibition;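 active means both replicates at 50% or more, plus weaker picks with an unusually low signal ratio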;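 further: stock transfer was 100 nL into about 20 µL; 0% = negative control wells and 100% = wells with untagged competitor protein; inactives centre near -12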
Sa growth 42C second temp: also measured in Sa growth 42C; calls as there; relative growth, %; measured here: growth at 30 °C;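 optical density after 20 h as mean of two plates; 100% = untreated growth and lower means inhibition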
Numbers without * were called inactive; . = not tested or not shown; & = joins results of further samples.

compound | GIV-Gai inh | Sa growth 42C | Sa growth 42C second temp | HCMV UL50-53 inh
CCN1CCc2nc3sc(C(=O)c4ccc(Cl)cc4)c(N)c3cc2C1 | 102 | . | . | -26
CC(C)(Oc1ccc(Cl)cc1)C(=O)Nc1ncn[nH]1 | . | 91 | 85 | -19
CCc1ccc(NC(=O)NCc2nc(-c3ccc(OC)cc3)oc2C)cc1 | 104 | . | . | -26
COc1ccc(/C=C2\SC(=O)N(Cc3ccccc3Cl)C2=O)cc1O | 104 | 118 | 84 | -9
CC(C)c1ccc(C(O)CN2CCN(S(=O)(=O)c3cccc(C(F)(F)F)c3)CC2)cc1 (stereo not given) | . | 74 | 96 | -24
O=C(CCNC(=O)c1ccc(Cl)cc1)NN1C(=O)NC2(CCCCC2)C1=O | . | 79 | 92 | -3
NC(=S)Nc1ccc(C(=O)O)cc1 | . | 69 | 89 | -16
Cc1cc(-c2ccccc2)nc2c1c(=O)[nH]c(=O)n2CC(C)C | . | 108 | 101 | 5
CC(=O)c1cccc(Nc2cc(C)nc3nc(-c4ccccc4C)nn23)c1 | 107 | 76 | 80 | -9
CN(C(=O)CSc1ccc2c(c1)OCCO2)C1CCS(=O)(=O)C1 (stereo not given) | . | 103 | 85 | -19
Cc1ccc(C2Nc3ccccc3NC3=C2C(=O)CC(c2ccccc2)C3)cc1 (stereo not given) | 97 | . | . | -9
Cc1ccc(-c2nc(N3CCC4(CC3)OCCO4)c3ccccc3n2)cc1 | 107 | . | . | -18
COCC(=O)O[C@]1(CCN(C)CCCc2nc3ccccc3[nH]2)CCc2cc(F)ccc2[C@@H]1C(C)C | 102 | . | . | -7&-4
N#CSC(C#N)Cc1ccc(Cl)c(Cl)c1 (stereo not given) | . | 68 | 23 | -30
COc1ccc(/C=C(\C#N)c2ccc(C)cc2)cc1 | 102 | 44* | 85* | -9
Cc1cccc(CNC(=O)c2ccc3c(c2)sc2nc(-c4ccc(C)cc4C)cn23)c1 | 101 | . | . | -16
Cc1cccc(-c2nc(CN3CCCC(C(=O)NCCc4ccc(Cl)cc4)C3)c(C)o2)c1 (stereo not given) | 101 | 100 | 94 | 11
N#CSc1ccc2c(c1)CCCN2C(=O)Nc1ccccc1 | . | 66 | 86 | -36
CCOC(=O)c1cnc2ccc(C(=O)OC)cc2c1Nc1ccc(N2CCOCC2)cc1 | 108 | 99 | 99 | -37
NCCCCNCCCN | 102 | . | . | -16&5
O=C(CC(c1ccccc1)c1ccccc1O)N1CCCC1 (stereo not given) | 102 | 131 | 86 | -3
N#Cc1cccc(CSc2nnc(-c3ccncc3)o2)c1 | 97 | . | . | -13
Cc1ccc(NC=C2C(=O)OC(C)(C)OC2=O)cc1 | . | 90 | 89 | -7
O=C(O)CCSc1nnc2sc3ccccc3n12 | 102 | 105 | 82 | .
O=C(Cc1c(O)c2ccccc2[nH]c1=O)NC1CCCCCCC1 | . | 82 | 94 | 7
N#CNC1=NCN(CCN2CCOCC2)CN1 | . | 102 | 89 | 9
CC1CC(C)CN(S(=O)(=O)c2ccc3c(c2)oc(=O)n3CC(=O)Nc2ccccc2F)C1 (stereo not given) | 104 | 92 | 64 | -15
Cc1cn2c(=O)c(S(=O)(=O)NCCc3ccccc3)c(C)nc2s1 | 105 | 115 | 80 | .
O=C1c2cccc(Oc3ccc(Cl)cc3)c2C(=O)N1CC1CCCO1 (stereo not given) | 100 | 98 | 86 | -16
Cc1ccc(-c2nnc(C3CCN(S(=O)(=O)c4ccc(C(C)(C)C)cc4)CC3)o2)cc1 | 104 | . | . | -36
CCC1CCc2c(sc3ncnc(N4CCC(C)CC4)c23)C1 (stereo not given) | 105 | . | . | 3
COc1cc(=O)n(C)c2cc(N(C)C)ccc12 | 103 | 117 | 72 | .
Cc1cc(C)c2c(-n3cccc3)nn(CCCC(=O)Nc3ccc(F)cc3C)c2n1 | 103 | 99 | 89 | -34
CC(=O)NCCC(=O)Nc1ccc2c(c1)-c1ccccc1C2 | . | 100 | 99 | -4
CC(=O)Oc1cn(C(C)C)c2nc(C)n3c4ccccc4nc3c12 | . | 106 | 57 | -96
C=CCN(Cc1nc(-c2cccc(C)c2)no1)C(=O)Nc1cccc(C)c1 | 105 | . | . | 14
CCOC(=O)CN1NC(CC)(c2ccccc2)NC1=S (stereo not given) | . | 117 | 79 | -11
COC(=O)c1ccc(NC(=O)CCCCl)cc1 | . | 84 | 91 | -7
O=c1c(-c2ccc(Cl)cc2)c(N2CCOCC2)c1=O | 105 | . | . | -57
COc1ccc(-c2nnnn2-c2ccc(F)cc2F)cc1 | 98 | . | . | -17

Four successive records from above, quoted:
compound | GIV-Gai inh | Sa growth 42C | Sa growth 42C second temp | HCMV UL50-53 inh
CCN1CCc2nc3sc(C(=O)c4ccc(Cl)cc4)c(N)c3cc2C1 | 102 | . | . | -26
CC(C)(Oc1ccc(Cl)cc1)C(=O)Nc1ncn[nH]1 | . | 91 | 85 | -19
CCc1ccc(NC(=O)NCc2nc(-c3ccc(OC)cc3)oc2C)cc1 | 104 | . | . | -26
COc1ccc(/C=C2\SC(=O)N(Cc3ccccc3Cl)C2=O)cc1O | 104 | 118 | 84 | -9

(list continues)
compound | GIV-Gai inh | Sa growth 42C | Sa growth 42C second temp | HCMV UL50-53 inh
Cc1ccccc1OCc1nnc(C(=O)Nc2ccc(C(=O)NCc3ccccn3)cc2)s1 | 101 | . | . | -13
Cc1ccc(CNC(=O)CCc2c(C)nc3nc(C)nn3c2C)cc1 | 105 | 79 | 92 | -2
CCOc1ccc(C(=O)N2CCN(Cc3cc(=O)n4nc(-c5ccccc5Cl)sc4n3)CC2)cc1 | 106 | 77 | 88 | .
CCOC(=O)C(C#N)=c1sc(=C(C#N)C(=O)OCC)s1 | 103 | 80 | 72 | -16
CN1N=C(C(C)(C)C)CC1=O | 107 | 92 | 84 | 16
COc1ccccc1NC(=O)CN(Cc1ccco1)C(=O)/C=C/c1ccc(C)o1 | . | 97 | 85 | -21
CC(O)c1c(O)ccc2ccc(=O)oc12 (stereo not given) | 105 | 115 | 82 | -43
Cc1ccn2c(Nc3ccccc3)c(-c3c[nH]c4ccccc34)nc2c1 | 114 | 103 | 43 | -18
CCC(Sc1[nH]c2ccccc2c(=O)c1C(=O)OC)C(=O)Nc1cccc(OC)c1 (stereo not given) | 106 | . | . | -13
O=C(NC1CCCC1)c1cc(-c2ccccc2)on1 | 105 | 115 | 86 | -2
O=c1[nH]cc(S(=O)(=O)NC2CC3CCC2C3)c(=O)[nH]1 (stereo not given) | 96 | . | . | -21
C=CCSc1nc(N)cc(=O)[nH]1 | 106 | 102 | 80 | .
CCC1(C)Cc2sc3c(=O)[nH]c(=S)[nH]c3c2CO1 (stereo not given) | 106 | 101 | 90 | -6
Fc1ccc(-c2noc(-c3ccc4c(c3)CCO4)n2)cc1 | 105 | 91 | 89 | -28
Cc1c(NC(=O)c2ccc(-c3ccc(F)cc3)o2)cccc1-c1nc2ncccc2o1 | 110 | 108 | 79 | -32
Cc1ccc(C)c(N=C(N)N=C(N)N)c1 | 109 | 105 | 103 | 9
CC(=O)c1ccc(N2C(=O)N(Cc3ccc(F)cc3)c3ccccc3S2(=O)=O)cc1 | 101 | 88 | 100 | .
Nc1nonc1-n1cc(CN2CCCCC2)nn1 | 103 | 116 | 113 | -9
O=C(Nc1nc2ccccc2n1CCN1CCCC1)C1CCCCC1 | 103 | . | . | -4
CCOC(=O)c1cnn(CCOC(=O)C2CC2)c1NC(=O)C1CC1 | 104 | 91 | 86 | 0

Just HCMV UL50-53 inh, for two of the compounds above:
smiles,HCMV UL50-53 inh
Cc1ccc(-c2nnc(C3CCN(S(=O)(=O)c4ccc(C(C)(C)C)cc4)CC3)o2)cc1,-36
O=C1c2cccc(Oc3ccc(Cl)cc3)c2C(=O)N1CC1CCCO1 (stereo not given),-16

Further results.
compound | GIV-Gai inh | Sa growth 42C | Sa growth 42C second temp | HCMV UL50-53 inh
COc1ccc(Cl)cc1S(=O)(=O)N1CCC(c2ccncc2)CC1 | 100 | 107 | 101 | .
O=C(O)COc1ccc2c(c1)CCCC2 | 100 | 90 | 95 | -28
CCOc1ccc(CCNC(=O)c2cnc3sc(N4CCOCC4)nn3c2=O)cc1 | 99 | 98 | 88 | .
CCc1nnc(NC(=O)/C=C/c2ccc(S(=O)(=O)N3CCCCCC3)cc2)s1 | . | 93 | 91 | -36
O=C(NC1CCCC1)c1sc(=S)n2c1[nH]c(=O)c1cc3c(cc12)OCO3 | 100 | . | . | -30
CCCCSc1nnc2c(n1)OC(c1cc(OC)ccc1OC)N(C(C)=O)c1ccccc1-2 (stereo not given) | 110 | . | . | -22
CNc1[nH]cnc(=S)c1N | 100 | 80 | 82 | .
Cc1csc(NC(=O)C2CCC(CNS(=O)(=O)c3cccc4nsnc34)CC2)n1 (stereo not given) | 98 | 98 | 87 | -76
Cc1ccc(-n2nnnc2SCc2nc3sc4c(c3c(=O)[nH]2)CCCC4)c(C)c1 | . | 106 | 96 | -16
O=c1c2ccccc2c(-c2nnc(SCC3CCCCO3)o2)nn1Cc1ccccc1 (stereo not given) | . | 81 | 84 | -26
Cc1ccc(NC(=S)N(CCCN2CCOCC2)C(C)c2cc3ccccc3o2)cc1C (stereo not given) | 101 | 95 | 36 | -15
O=C1OCCN1S(=O)(=O)c1ccc(Cl)cc1 | 110 | 95 | 87 | -1
Cc1cc(Cl)cc2sc(NC(=O)C3CC3)nc12 | 98 | 100 | 82 | -29
CCc1ccc2nc(N(Cc3cccnc3)C(=O)c3cccs3)sc2c1 | 99 | 94 | 96 | .
CS(=O)(=O)N1CCC(C(=O)Nc2ccccc2)CC1 | 96 | 84 | 85 | 6
Cc1nc(N)c(S(=O)(=O)c2ccccc2)c(Nc2ccc(Br)cc2)n1 | 105 | 102 | 92 | -17
O=C(c1cc2ccccc2cc1O)N1CCOCC1 | . | 96 | 96 | -25
CCN1CCN(c2oc(-c3ccc(COc4ccccc4C)o3)nc2C#N)CC1 | 105 | 86 | 87 | -7
N#Cc1cc(Oc2cccnc2)c(Oc2cccnc2)cc1C#N | 115 | 102 | 86 | 7
Cc1ccc(CNC(=O)CCCn2c(=O)c3ccccc3n(CC(=O)C(C)(C)C)c2=O)cc1 | 109 | 104 | 88 | -14

Of the compounds above, these contain a COOH group:
compound | GIV-Gai inh | Sa growth 42C | Sa growth 42C second temp | HCMV UL50-53 inh
NC(=S)Nc1ccc(C(=O)O)cc1 | . | 69 | 89 | -16
O=C(O)CCSc1nnc2sc3ccccc3n12 | 102 | 105 | 82 | .
O=C(O)COc1ccc2c(c1)CCCC2 | 100 | 90 | 95 | -28

Next section
compound | GIV-Gai inh | Sa growth 42C | Sa growth 42C second temp | HCMV UL50-53 inh
Cc1ccc(C)c(OCC(=O)N/N=C\c2cccn2C)c1 | 103 | 102 | 91 | -7
O=C(CSc1nccc(-c2cccs2)n1)Nc1cccc(C(F)(F)F)c1 | 111 | 55 | 23 | -5
c1ccc(C2C3=C(CCCC3)Nc3nc4ccccc4n32)cc1 (stereo not given) | 110&99 | . | . | -30
N#Cc1c2ccccc2c(C#N)c2ccccc12 | 103 | 115 | 74 | -3
Cc1cc2[nH]c(=O)[nH]c2cc1NS(=O)(=O)c1ccc(CC(C)C)cc1 | 106 | . | . | -29
Cc1cc(-c2ccccc2)nc2cc(C(=O)N(C)C3CCCCC3)nn12 | . | 105 | 84 | -14
Cc1ccc(NC(=O)Cn2c(=O)n(Cc3ccccc3)c(=O)c3c(C)c(C)sc32)c(C)c1 | 100 | 99 | 84 | -6
Cc1oc2c(c1C(=O)NCCO)CCCC2 | 105 | 102 | 93 | -1
Clc1ccc(-c2cc(C3CCNCC3)[nH]n2)c(Cl)c1 | 98 | . | . | -3
Cc1cc(NC(=O)Cn2c(=O)/c(=C\c3cccs3)s/c2=C\C(=O)C(C)(C)C)no1 | . | 87 | 86 | -16
COc1cccc(NC(=O)CSc2nc3ccc(NC(=O)c4ccco4)cc3s2)c1 | 108 | 91 | 79 | 10
CC(C)N(CCC#N)C(=O)Nc1ccccc1Cl | 99 | 96 | 91 | -24
CCOC(=O)CSc1nc2c(sc3ccccc32)c(=O)n1Cc1ccccc1 | 104 | 108 | 96 | .
Cc1cc(C)c(C(=O)O)c(Cl)n1 | . | 104 | 103 | 19
Cc1ccc2c(CSc3nc(N)cc(N)n3)cc(=O)oc2c1C | . | 96 | 84 | -26
CC(C)CNC(=O)c1cccc(Cl)c1 | 102 | 86 | 88 | -33
CC(C)c1ccc(NCC(O)CSc2ccccc2)cc1 (stereo not given) | 95 | 93 | 99 | -3
COc1cc(NC(=O)N2CCN(Cc3nc4cccnc4n3-c3ccccc3)CC2)cc(OC)c1 | 107 | . | . | -12
COc1cccc(NCc2nnc(SCC(=O)NC3CCS(=O)(=O)C3)n2C2CCCCC2)c1 (stereo not given) | . | 103 | 87 | -13

Record cards (already shown):
Cc1cc(NC(=O)Cn2c(=O)/c(=C\c3cccs3)s/c2=C\C(=O)C(C)(C)C)no1 as listed: GIV-Gai inh = .; Sa growth 42C = 87; Sa growth 42C second temp = 86; HCMV UL50-53 inh = -16
CC(C)N(CCC#N)C(=O)Nc1ccccc1Cl as listed: GIV-Gai inh = 99; Sa growth 42C = 96; Sa growth 42C second temp = 91; HCMV UL50-53 inh = -24
Cc1ccc(NC(=O)Cn2c(=O)n(Cc3ccccc3)c(=O)c3c(C)c(C)sc32)c(C)c1 as listed: GIV-Gai inh = 100; Sa growth 42C = 99; Sa growth 42C second temp = 84; HCMV UL50-53 inh = -6
